# VDR inh – Inhibitors of the vitamin D receptor (VDR): qHTS; Vitamin D3 receptor (Homo sapiens), P11473; VDR-SRC2-3 peptide fluorescence polarization, 2 h; Potency, µM, inactives show max response, negative = inhibition, hits mostly inhibitors; actives 0.93% (n = 400,000); AID 504847, 2011; active = well fitted inhibition curve with a large enough effect; inconclusive = small, poorly fitted or top-dose-only effect, or another doubt; inactive = no such curve, though single readings can be large or run the other way; note: series mostly up to about 120 µM
# Target sequence (P11473 whole entry, looked up): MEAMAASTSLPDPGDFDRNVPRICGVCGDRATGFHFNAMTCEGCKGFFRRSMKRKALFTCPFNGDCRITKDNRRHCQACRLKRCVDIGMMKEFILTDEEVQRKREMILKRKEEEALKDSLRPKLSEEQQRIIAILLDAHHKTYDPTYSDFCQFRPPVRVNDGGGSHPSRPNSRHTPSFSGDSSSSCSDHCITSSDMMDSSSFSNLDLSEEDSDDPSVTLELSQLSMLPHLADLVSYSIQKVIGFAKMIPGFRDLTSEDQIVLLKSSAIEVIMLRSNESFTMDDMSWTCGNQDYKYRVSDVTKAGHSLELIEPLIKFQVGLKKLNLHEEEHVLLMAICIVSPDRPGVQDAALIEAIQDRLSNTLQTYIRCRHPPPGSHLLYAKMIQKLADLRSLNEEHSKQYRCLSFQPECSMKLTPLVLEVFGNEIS
#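 Inhibition of the VDR/SRC2-3 peptide interaction is quantified by fluorescence polarization. Compounds (23 nl, pintool) incubate with the reagents for 2 hours at ambient room temperature.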
# Active calls of the source: *; ? = inconclusive; [ ] = dose if it differs, or a comment. % is set by controls: 0 for no effect and ±100 for the full control effect; potency is the fitted concentration of half-maximal effect. Some of the compounds tested; rates above refer to the full screens.
smiles | VDR inh
Cc1c(C(=O)O)oc2ccc(S(=O)(=O)N3CCCCC3C(=O)O)cc12 (stereo not drawn) | -10%
O=C(c1cnc2sccn2c1=O)N1CCc2ccccc2C1 | 8%
CCOC(=O)c1[nH]c(C)c(C(=O)OCC(=O)N2CCc3ccccc32)c1C | -13%
O=C(Nc1ccccc1N1CCCC1)c1cccnc1 | 13%
COc1ccc(C(=S)N2CCOCC2)cc1OC(=O)c1ccccc1Cl | -21%
Cc1ccc(S(=O)(=O)N2c3ccccc3NC(=O)C2CC(=O)Nc2ccccc2)cc1 (stereo not drawn) | 18%
COc1ccc(N2C(=O)C3NN=C(C(=O)OCc4ccccc4)C3C2=O)cc1 (stereo not drawn) | 27%
COc1ccc(/C=C/C(=O)OCC(=O)Nc2ccc(Cl)cn2)cc1 | 5%
O=C(COc1ccc(Cl)cc1Cl)Nc1cccc2cccnc12 | 2%
CCn1c(C)nc2cc(-c3nnc(-c4c(-c5ccccc5)noc4C)o3)ccc21 | -3%
O=C(CSc1nnc(-c2ccc(Cl)cc2Cl)n1C1CCCCC1)N1CCCC1 | 2%
CCOC(=O)Cc1csc(NC(=O)CSc2nnnn2-c2ccc(C)cc2C)n1 | 3%
O=C(O/N=C/c1cccc([N+](=O)[O-])c1)C1CC1 | -5%
Cc1ccc(S(=O)(=O)NCCC(=O)NNC(=O)C2COc3ccccc3O2)cc1 (stereo not drawn) | -6%
O=C(NCc1ccc(Cl)cc1)NCC(F)(F)F | -8%
Nc1ccc(Cl)cc1/C(=N/O)c1ccccc1 | -12%
O=C(Nc1cccc(Cl)c1)N1CCSc2cc(Cl)ccc21 | -1%
COC(=O)c1ccc(NC(=O)C(OC)c2ccccc2)cc1 (stereo not drawn) | -7%
C=CCNC(=S)Nc1ccc2nc(C)c(C)nc2c1 | 5%
Cc1ccc(NC(=O)C2CCN(c3ncnc4c3nc3n4CCCCC3)CC2)cc1Cl | 12%
O=C(Nc1ccc(F)cc1)NC1CCN(Cc2ccccc2)CC1 | 18%
CC(=O)Nc1c(Cl)c(Cl)c2c(c1Cl)C(=O)c1cc(Cl)ccc1-2 | -10%
O=C(Nc1ccc(Cc2ccncc2)cc1)c1ccc(S(=O)(=O)N2CCOCC2)cc1 | -5%
Cc1ccc(S(=O)(=O)Nc2cc3c(C(=O)OCc4ccccc4)c(C)oc3c3ccccc23)cc1 | -29%

# Single entries from above.
# COC(=O)c1ccc(NC(=O)C(OC)c2ccccc2)cc1 (stereo not drawn) | VDR inh = -7%
# O=C(Nc1ccc(F)cc1)NC1CCN(Cc2ccccc2)CC1 | VDR inh = 18%

# The results go on:
smiles | VDR inh
CC(C)COc1ccc(C(=O)N/C(=C\c2cccc([N+](=O)[O-])c2)C(=O)O)cc1 | -10%
O=C(N/N=C/c1c(Cl)cccc1Cl)C(=O)NC1CC1 | -6%
COC(c1ccc(Cl)cc1)(c1ccc(Cl)cc1)C(Oc1nc(C)cc(C)n1)C(=O)O (stereo not drawn) | -29%
C=CCCN(Cc1ccccc1)S(=O)(=O)c1ccccc1Br | ?
CCc1ccc(C2c3c(oc4ccc(F)cc4c3=O)C(=O)N2CCc2ccc(OC)cc2)cc1 (stereo not drawn) | -8%
COc1ccc(N2CCN(C(=O)CSc3nnc(Cn4nnc5ccccc54)n3C)CC2)cc1 | 0%
Cc1ccccc1NC(=O)CCn1nc(-c2ccccc2)c2ccccc2c1=O | -1%
CCNc1ncc2nc(-c3cc(F)cc(F)c3)c(=O)n(CCOC)c2n1 | -22%
Cc1ccc(C)c(NC(=O)CN(C)C(=O)C2CCN(S(=O)(=O)c3ccc4c(c3)OCCO4)CC2)c1 | -19%
CC(C)(C)c1ccc(Oc2nc3ccccn3c(=O)c2/C=C(\C#N)c2nc3ccccc3[nH]2)cc1 | -6%
Cc1c(C(C)NC(=O)c2cc(COc3cccc4cnccc34)on2)cnn1C (stereo not drawn) | -9%
Cc1onc(-c2ccccc2Cl)c1-c1nc(-c2ccncc2)no1 | 6%
O=C(NCc1cccnc1)c1ccc(Cn2c(=S)[nH]c3ccc(Br)cc3c2=O)cc1 | -12%
CNc1ccccc1C(C)(C)c1cc(C)[nH]n1 | ?
Cc1nc2ccccn2c1C(=O)NNC(=O)Nc1ccccc1 | -5%
O=C(CCc1nc2ccccc2[nH]1)N1CCN(C(=O)c2ccco2)CC1 | -1%
O=c1[nH]c(=O)n(Cc2ccco2)c2c1C(C(F)(F)F)(C(F)(F)F)N=C(c1ccc(F)cc1)N2 | -1%
COc1ccc(/C=N/Nc2ccc(C(=O)O)cc2)c(OC)c1OC | -3%
O=C(NCc1ccccc1Cl)c1ccc2c(c1)SC1=NS(=O)(=O)CCN12 | 0%
O=C(NCCCN1CCOCC1)c1ccc(Sc2ccc(Br)cc2)c([N+](=O)[O-])c1 | 9%
CC(C)CCNC(=O)c1cc(Sc2ccc(F)cc2F)nc2ccccc12 | -3%
COc1cccc(CCc2nnc(CCC(=O)N3CCCC3c3nccs3)o2)c1 (stereo not drawn) | -7%
CCOC(=O)c1[nH]c2ccccc2c1N=C(C)N(CC)CC | -5%
Cc1cc(C)c(NC(=O)c2ccc3c(c2)NC(=O)C(C)S3)c(C)c1 (stereo not drawn) | -3%
Cc1ccc(OCCCn2c(-c3ccc(Cl)cc3)nc3ccccc3c2=O)c(C)c1 | -11%
Cc1cccc2c1N(CCOc1ccccc1)C(=O)C2=O | ?
COc1ccc(N(CC(=O)NC2CCCC2)C(=O)CCC(=O)Nc2cc(C)on2)c(OC)c1 | -6%
COC(=O)c1cc(OC)c(OC)cc1NC(=O)CCC1CCCC1 | -10%
CCn1c(=O)[nH]c2ccccc2c1=O | -8%
Cc1ccsc1/C=N/N1CCN(c2ccccc2)CC1 | 9%
CC(C)N(C(=O)COC(=O)c1ccc(Cl)nc1)C(C)C | -12%
Cc1cc(C(=O)NC(C)c2ccncc2)no1 (stereo not drawn) | 18%
COc1ccccc1C(=O)NC(=O)Cn1nc(C)c([N+](=O)[O-])c1C | 14%
CCOc1cc(/C=N/NC(=O)C(=O)NC)cc(Br)c1O | 0%
Cc1nn(-c2ccccc2)c(C)c1NC(=O)COC(=O)[C@@H](NC(=O)c1ccccc1)C(C)C | -10%
N#CCCn1cc(/C=C2\NC(=S)N(c3ccccc3)C2=O)c(-c2ccc(F)cc2)n1 | 6%
O=C(COc1ccccc1[N+](=O)[O-])NCCCN1CCCC1=O | 2%
O=C(CSc1ncnc2nc[nH]c12)NCCc1ccccc1 | 13%
COc1ccc(CCn2c3c(c(=O)[nH]c2=O)C(NC(=O)c2ccc(C(C)(C)C)cc2)(C(F)(F)F)C(=O)N3)cc1OC (stereo not drawn) | 0%
Cc1ccc(CNC(=O)CCNS(=O)(=O)c2ccc3c(c2)c(=O)n(C)c(=O)n3C)cc1 | -22%
O=C(CCN1C(=O)S/C(=C\c2ccc(Cl)cc2)C1=O)Nc1ccc(C(=O)O)cc1 | -7%
O=C(CSc1n[nH]c(-c2ccccc2O)n1)NC1CCCCC1 | 13%
Cn1c(CNC(=O)CNC(=O)Cc2ccc(Cl)cc2)cc(=O)n(C)c1=O | 9%
CCOC(=O)C1CCN(C(=O)c2ccc(Cl)c(NC3=NC4CS(=O)(=O)CC4S3)c2)CC1 (stereo not drawn) | 15%
N/C(=N\OC(=O)c1ccc(=O)n(Cc2ccccc2)c1)c1ccccn1 | -7%
CCOC(=O)Cc1cc(=O)n2[nH]cc(-c3ccc(Cl)cc3)c2n1 | 40%[activator]
Cc1cc(NC(=O)CSCC(=O)Nc2ccccc2OC(F)F)no1 | -7%
COc1ccc(CN(Cc2cccn2C)S(=O)(=O)c2cccc(C(F)(F)F)c2)cc1 | -24%
CC(C)CNC(=O)CSc1nnc(CN2CCCCCC2=O)n1-c1ccccn1 | -9%
O=C(O)C1=C[C@@H](c2ccccc2)C[C@@H](OCc2ccc(CO)cc2)O1 | 6%
Cc1ccc(NC(=O)CC2SCCNC2=O)cc1Cl (stereo not drawn) | -11%
CCCCCC(=O)Nc1ccc(-c2nnc3n2CCCCC3)cc1 | -30%
O=c1ccc(-c2ccc(S(=O)(=O)Nc3ccc(F)cc3)s2)n[nH]1 | -16%
Cc1ccc(C)c(OCCC(=O)OC(C)C(=O)Nc2c(C)n(C)n(-c3ccccc3)c2=O)c1 (stereo not drawn) | -5%
CN(C(=O)CSc1nnc(COc2ccccc2F)n1N)C1CCCCC1 | 17%
CCCCC(=O)Nc1ccc(OCc2cc(=O)n3c(C)csc3n2)cc1 | -19%
O=C(CSc1nc2cc(C(=O)NC3CCCC3)ccc2c(=O)n1CC1CCCO1)c1cccc(Cl)c1 (stereo not drawn) | -2%
CCOC(=O)N1CCC(NC2CCCCCCC2)CC1 | 9%
CCOC(=O)C1C(c2ccc(O)cc2)NC(=O)NC1(O)C(F)(F)F (stereo not drawn) | -26%
Cc1oc2ccc(OC(=O)COc3c(F)c(F)c(F)c(F)c3F)cc2c1C(=O)OC(C)C | 5%

# The closing two compounds of the section above come first, to join the parts:
smiles | VDR inh
CCOC(=O)C1C(c2ccc(O)cc2)NC(=O)NC1(O)C(F)(F)F (stereo not drawn) | -26%
Cc1oc2ccc(OC(=O)COc3c(F)c(F)c(F)c(F)c3F)cc2c1C(=O)OC(C)C | 5%
COc1ccc(N2CCN(S(=O)(=O)c3c(C)nc4sc(C)cn4c3=O)CC2)cc1 | 2%
COc1cc2c(cc1NC(=O)COC(=O)c1ccc(C(C)(C)C)cc1)oc1ccccc12 | -5%
CCOC(=O)C1=C(C)Nc2ncnn2C1c1c[nH]c2ccccc12 (stereo not drawn) | 7%
CN(C(=O)c1ccccc1C(=O)OCC(=O)NCc1cccs1)C1CCCCC1 | 17%
CCCCCn1c(CN(C)Cc2ccccc2)nc2c1c(=O)n(C)c(=O)n2C | 7%
CCc1ccc2c(COn3nnc4ccc(S(=O)(=O)N(C)C)cc43)cc(=O)oc2c1 | 7%
CCOc1ccc(/C=N/NC(=O)c2nnn(-c3nonc3N)c2CN2CCC(C)CC2)cc1 | 4%
CCOc1ccc(N2C(=O)C3C(c4ccccc4)=NN(c4ccccc4)C3C2=O)cc1 (stereo not drawn) | -11%
CCC(CC)NC(=O)COc1ccc(OC)cc1C=O | -15%
O=C1C(C=NC2CC2)=C(O)c2ccccc21 | 13%
Cc1ccc(S(=O)(=O)c2nnn3c2nc(N2CCOCC2)c2sccc23)cc1C | 1%
CCN(CC)C(=O)Cn1c(=O)n(CCCCCC(=O)NCc2ccc(C)cc2)c(=O)c2sccc21 | 0%

# Two entries drawn at random from the list so far:
smiles | VDR inh
CCOC(=O)C1=C(C)Nc2ncnn2C1c1c[nH]c2ccccc12 (stereo not drawn) | 7%
CCOc1ccc(/C=N/NC(=O)c2nnn(-c3nonc3N)c2CN2CCC(C)CC2)cc1 | 4%

# Six compounds already listed, sorted by the number in VDR inh, high to low.
canonical_smiles	VDR inh
CCCCCn1c(CN(C)Cc2ccccc2)nc2c1c(=O)n(C)c(=O)n2C	7%
CCOc1ccc(/C=N/NC(=O)c2nnn(-c3nonc3N)c2CN2CCC(C)CC2)cc1	4%
COc1ccc(N2CCN(S(=O)(=O)c3c(C)nc4sc(C)cn4c3=O)CC2)cc1	2%
CCN(CC)C(=O)Cn1c(=O)n(CCCCCC(=O)NCc2ccc(C)cc2)c(=O)c2sccc21	0%
CCOc1ccc(N2C(=O)C3C(c4ccccc4)=NN(c4ccccc4)C3C2=O)cc1 (stereo not drawn)	-11%
CCC(CC)NC(=O)COc1ccc(OC)cc1C=O	-15%

# (listing goes on)
smiles | VDR inh
Cc1cc(C)c(C2=CC(=O)C[C@H](c3ccc4c(c3)OCO4)C2)c(C)c1 | -4%
CS(=O)(=O)c1nc(S(=O)(=O)c2ccc(Cl)cc2)c(N2CCC(O)CC2)s1 | 0%
O=C(Cc1ccc(-c2ccccc2)cc1)OCC(=O)N1CCCC1=O | -6%
O=C(O)CCCC(=O)N1CCN(c2nc(-c3ccccc3)c3ccccc3n2)CC1 | 0%
C=CCn1c(COc2ccc(Cl)cc2)nnc1SCC(=O)Nc1ccc(S(N)(=O)=O)cc1 | -8%
O=c1cc(CN2CCN(Cc3ccccc3)CC2)c2ccc(O)c(O)c2o1 | 7%
Nc1nc(-c2cccc(Br)c2)cs1 | -19%
CCCCNC(=O)c1onc(CSc2ccc(F)cc2)c1C(=O)NCCCC | -9%
Cc1nccc(-c2sc(-c3cccs3)nc2C)n1 | 9%
c1cnc2ccc(C(c3nnnn3C3CCCCC3)N3CCN4CCCC4C3)cc2c1 (stereo not drawn) | 8%
CC(=O)c1cccc(OC(=O)C2=CC=CN3CCS(=O)(=O)N=C23)c1 | -5%
O=C(/C=C/c1ccco1)NCC1CCCO1 (stereo not drawn) | -6%
O=C(NC1CCCc2ccccc21)C1CCN(S(=O)(=O)c2ccccc2)CC1 (stereo not drawn) | -4%
C#CCNC(=O)C1=C[C@@H](C2CCCCC2)C[C@@H](OCCCCO)O1 | -13%
COc1ccc(-n2nc(C(=O)NCCc3ccc(OC)c(OC)c3)c3c4ccccc4n(C)c3c2=O)cc1 | -6%
O=Cc1ccc(OCC(=O)NCC2CCCO2)cc1 (stereo not drawn) | -1%
CCN(CC)S(=O)(=O)c1ccc(C(=O)Nc2ccc3c(c2)OCO3)cc1 | -3%
COc1ccc(NC(=O)CCN2CCOCC2)c(OC)c1 | -13%
Cc1ccc(C)c(OCCC(=O)OCC(=O)c2ccc3c(c2)NC(=O)CO3)c1 | -13%
Cc1cc(Cl)ccc1OCCCC(=O)OCC(=O)Nc1cccc(S(N)(=O)=O)c1 | -21%
Cc1cc(C(=O)NC2CCCc3c2cnn3-c2ccc(C(C)(C)C)cc2)nn1C (stereo not drawn) | -7%
CN(C)c1ccc(/C=[N+](\[O-])C2N(c3ccccc3)C(=S)SC2(C)C)cc1 (stereo not drawn) | 5%

# Compound activity as filed in PubChem.
